Screens deposited in PubChem BioAssay by Broad Institute.
NOMO-1 viab: STK33 inhibitor candidate reducing NOMO-1 cell viability; inhibition, % (test concentration not listed); NOMO-1 AML viability, CellTiter-Glo luminescence, 72 h; hit rate 7.5% among 37,000;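 active = most replicates above 80%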;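 note: wells of about 30 µL received 25 nL stock; 0% = median of vehicle wells and 100% = reference inhibitor level; the first replicate is given; inactives centre near 10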
Active calls of the source: *. A portion of the library; count on the stated rates, not on these rows.

SMILES	NOMO-1 viab
C[C@@H]1CN([C@H](C)CO)C(=O)c2cc(NC(=O)CCCN(C)C)ccc2O[C@H]1CN(C)Cc1ccc(Oc2ccccc2)cc1	1.1
C[C@@H]1CN([C@@H](C)CO)C(=O)Cc2cc(NC(=O)CCCCCC(=O)Nc3ccccc3N)ccc2O[C@@H]1CN(C)CC1CCCCC1	135.8*
C[C@H]1CN([C@@H](C)CO)C(=O)c2cc(NC(=O)C3CC3)ccc2O[C@@H]1CN(C)C(=O)Nc1ccc(F)cc1	-15.4
COc1ccc(-n2ncc(NC(=O)Nc3ccc4c(c3)OCCCO4)c2C)cc1	2.6
C[C@H]1CN([C@@H](C)CO)C(=O)c2cc(NC(=O)Cc3ccccc3)ccc2O[C@@H]1CN(C)C(=O)Nc1cccc2ccccc12	20.0
Cc1ccc(S(=O)(=O)Nc2ccc3c(c2)C(=O)N([C@H](C)CO)C[C@H](C)[C@H](CN(C)C(=O)NC2CCCCC2)O3)cc1	2.3
O=C(/C=C/c1ccccc1)NCCCCNCCCNC(=O)/C=C/c1ccccc1	11.1
C[C@H]1CN([C@@H](C)CO)C(=O)c2cc(NS(=O)(=O)c3ccc(Cl)cc3)ccc2O[C@H]1CN(C)S(=O)(=O)c1cccs1	16.6
O=S(=O)(Nc1ncccn1)c1ccc(NC(=S)Nc2ccc(Oc3ccccc3)cc2)cc1	21.0
COc1ccc(CN(C)C[C@@H]2Oc3c(NS(=O)(=O)c4ccc(C)cc4)cccc3C(=O)N([C@@H](C)CO)C[C@H]2C)cc1	-5.7
Cc1ccc(S(=O)(=O)Nc2cccc3c2O[C@H](CN(C)Cc2ccc(C(F)(F)F)cc2)[C@@H](C)CN([C@H](C)CO)C3=O)cc1	18.4
O=C(Oc1ccccc1)c1cccc(COC(=O)c2cc(=O)[nH]c3ccccc23)c1	-2.8
Cc1cc(C)c(S(=O)(=O)NCC(=O)Nc2ccc(F)c(Cl)c2)c(C)c1	73.9
C[C@@H]1CN([C@@H](C)CO)C(=O)c2cc(NC(=O)Cn3cnnn3)ccc2O[C@H]1CN(C)Cc1ccccc1	20.9
C[C@@H]1CN([C@H](C)CO)C(=O)Cc2cc(N(C)C)ccc2O[C@H]1CN(C)Cc1ccccc1	17.8
CN1CCN(CC(=O)N2N=C(c3c(-c4ccccc4)c4cc(Cl)ccc4[nH]c3=O)CC2c2ccccc2)CC1 (centres undefined)	124.3*
C[C@H](CO)N1C[C@H](C)[C@H](CN(C)CC2CCCCC2)Oc2c(NC(=O)Nc3ccc(F)cc3)cccc2C1=O	39.6
COc1cc(-c2oc3cc(O)c(OC)c(O)c3c(=O)c2OC)ccc1O	119.7*
C[C@@H]1CN([C@H](C)CO)C(=O)Cc2cc(NC(=O)Nc3ccc(F)cc3)ccc2O[C@@H]1CN(C)C(=O)Nc1cccc2ccccc12	17.8
CCc1c(C)sc(NC(=S)Nc2nc(C)cc(C)n2)c1C(=O)OC	29.5
COc1ccc(NC(=O)Nc2cccc3c2O[C@H](CN(C)Cc2ccc(C(=O)Nc4ccccc4N)cc2)[C@@H](C)CN([C@@H](C)CO)C3=O)cc1	127.6*
C[C@H](CO)N1C[C@H](C)[C@@H](CN(C)S(=O)(=O)c2cccs2)Oc2c(NC(=O)Nc3ccc(C(F)(F)F)cc3)cccc2C1=O	45.2
C[C@@H]1CN([C@@H](C)CO)C(=O)c2cccc(NC(=O)C3CC3)c2O[C@@H]1CN(C)Cc1ccc(C(F)(F)F)cc1	-12.4
NC(=NC(=O)c1ccc(Cl)cc1)c1ccc(C(F)(F)F)cn1	12.8
C[C@@H]1CN([C@H](C)CO)C(=O)c2cc(NC(=O)Cc3cn(C)c4ccccc34)ccc2O[C@@H]1CN(C)Cc1ccc(Oc2ccccc2)cc1	107.5*
CC(C)NC(=O)Nc1ccc2c(c1)CC(=O)N([C@@H](C)CO)C[C@H](C)[C@H](CN(C)CC1CCCCC1)O2	9.3
Cc1cc(=O)[nH]c(SCCOc2ccccc2C#N)n1	-17.2
C[C@H]1CN([C@@H](C)CO)C(=O)Cc2cc(NS(C)(=O)=O)ccc2O[C@@H]1CN(C)Cc1ccc(C(F)(F)F)cc1	-0.9
COc1cc(CCc2cc(OC)c(C)cc2OC)c(OC)cc1C	39.7
Cc1sc(NC(=O)COc2ccc3c(C)cc(=O)oc3c2)c(C#N)c1C	11.3
C[C@H](CO)N1C[C@H](C)[C@@H](CN(C)S(=O)(=O)c2ccc(F)cc2)Oc2c(NC(=O)C3CCCCC3)cccc2C1=O	36.8
C[C@@H]1CN([C@H](C)CO)C(=O)c2cc(NC(=O)Cc3ccccc3)ccc2O[C@@H]1CN(C)Cc1ccc(-c2ccccc2)cc1	43.0
CC(C)NC(=O)Nc1ccc2c(c1)C(=O)N([C@H](C)CO)C[C@@H](C)[C@H](CN(C)Cc1ccccc1)O2	16.6
COc1cc(CNC2CCCC2)cc(I)c1OCC(N)=O	22.0
Cc1cc(C(=O)Nc2cccc3c2O[C@H](CN(C)C(=O)Nc2ccc(F)cc2)[C@@H](C)CN([C@H](C)CO)C3=O)n(C)n1	-2.1
COc1ccc(S(=O)(=O)Nc2ccc3c(c2)C(=O)N([C@H](C)CO)C[C@@H](C)[C@@H](CN(C)CC2CC2)O3)cc1	14.2
Cc1nc(N)nc(CSc2ccccc2)n1	27.1
CC1CCCCC1NC(=O)CSc1nnc(N)s1 (centres undefined)	13.1
CCn1cc(CNC(=S)Nc2cc(OC)ccc2OC)cn1	-13.7
CC(NS(=O)(=O)c1ccccc1)C(=O)Nc1cc(Cl)ccc1Oc1ccccc1 (centres undefined)	40.1
CCN(CC)CCCn1c(-c2ccc(C)cc2)cn2c3ccccc3nc12	10.3
C[C@H](CO)N1C[C@H](C)[C@H](CN(C)C(=O)Nc2ccccc2)Oc2c(NS(=O)(=O)c3cn(C)cn3)cccc2C1=O	16.0
COc1cc(COc2ccc3c4c(c(=O)oc3c2)CCC4)cc(OC)c1OC	33.7
C[C@@H]1CN([C@@H](C)CO)C(=O)Cc2cc(NS(=O)(=O)c3ccccc3)ccc2O[C@@H]1CN(C)C(=O)Nc1cccc2ccccc12	11.0
COc1ccc(S(=O)(=O)N(C)C[C@H]2Oc3c(NS(C)(=O)=O)cccc3C(=O)N([C@H](C)CO)C[C@@H]2C)cc1	-13.2
C[C@H]1CN([C@@H](C)CO)C(=O)Cc2cc(NC(=O)Nc3ccc(C(F)(F)F)cc3)ccc2O[C@H]1CN(C)Cc1ccccc1	84.5*
CCOC(=O)CSc1nnc2c(n1)[nH]c1ccccc12	111.3*
CCCn1cc(NC(=O)C2CC(c3ccccc3O)=NO2)cn1 (centres undefined)	57.1
COc1cc(NC(=O)CN(C)S(=O)(=O)c2ccc(C)cc2)cc(OC)c1	18.7
COC(=O)c1c(NC(=S)NCc2ccco2)sc2c1CCC(C)C2 (centres undefined)	49.3
CCOC(=O)CSc1c(-c2cccs2)[nH]c2ccccc12	139.4*
Cc1ccc(S(=O)(=O)N(C)C[C@@H]2Oc3ccc(NC(=O)Cc4cn(C)c5ccccc45)cc3C(=O)N([C@H](C)CO)C[C@H]2C)cc1	13.3
CC(C)c1ccc(OCC(=O)Nc2cc(C(=O)O)cc(C(=O)O)c2)cc1	-11.4
Cc1cccc(OCC(O)CNC(C)(C)CO)c1C (centres undefined)	-0.7
Cc1cc(C(=O)Nc2cccc3c2O[C@H](CN(C)C(=O)Nc2ccc4c(c2)OCO4)[C@H](C)CN([C@H](C)CO)C3=O)n(C)n1	-8.6
C[C@@H]1CCCCO[C@H](CN(C)Cc2ccc(C(F)(F)F)cc2)[C@@H](C)CN([C@H](C)CO)C(=O)c2cc(NS(C)(=O)=O)ccc2O1	15.5
Cc1ccc(C)c(NC(=O)c2ccc(OCC(=O)Nc3cccc(Cl)c3)cc2)c1	5.9
C[C@@H]1CN([C@@H](C)CO)C(=O)Cc2cc(NS(=O)(=O)c3cccs3)ccc2O[C@@H]1CN(C)Cc1ccc2c(c1)OCO2	16.2
C[C@H]1CN([C@@H](C)CO)C(=O)c2cc(NC(=O)Nc3ccccc3)ccc2O[C@H]1CN(C)Cc1ccncc1	97.7*
Cc1ccc2c(C)c(C(=O)Nc3sc4c(c3C(=O)NCc3cccnc3)CCCC4)oc2c1	0.0

An excerpt of these results, field by field:
C[C@@H]1CCCCO[C@H](CN(C)Cc2ccc(C(F)(F)F)cc2)[C@@H](C)CN([C@H](C)CO)C(=O)c2cc(NS(C)(=O)=O)ccc2O1
  NOMO-1 viab: 15.5

CCN(CC)CCCn1c(-c2ccc(C)cc2)cn2c3ccccc3nc12
  NOMO-1 viab: 10.3

Cc1ccc2c(C)c(C(=O)Nc3sc4c(c3C(=O)NCc3cccnc3)CCCC4)oc2c1
  NOMO-1 viab: 0.0

Next section.
SMILES	NOMO-1 viab
O=C(O)CCC/C=C\C[C@@H]1CO[C@H](C(F)(F)F)O[C@@H]1c1ccccc1O	14.2
COc1ccc(CN(C)C[C@H]2Oc3ccc(NC(=O)Nc4ccc(F)cc4)cc3C(=O)N([C@@H](C)CO)C[C@H]2C)cc1	15.5
C[C@@H]1CN([C@@H](C)CO)C(=O)c2cccc(NC(=O)c3ccncc3)c2O[C@@H]1CN(C)Cc1ccc(C(=O)Nc2ccccc2N)cc1	127.7*
CC(=O)OC[C@]12[C@H](OC(C)=O)[C@H](OC(C)=O)[C@@H]3[C@@H](OC(C)=O)[C@@]14O[C@@]3(C)COC(=O)c1ncccc1CC[C@H](C)C(=O)O[C@@H]([C@H](O)[C@@H]2OC(=O)c1ccccc1)[C@]4(C)O	117.1*
COc1ccc(S(=O)(=O)N(C)C[C@@H]2Oc3c(cccc3N(C)C)C(=O)N([C@@H](C)CO)C[C@H]2C)cc1	8.2
C[C@H]1CN([C@@H](C)CO)C(=O)Cc2cc(N(C)C)ccc2O[C@H]1CN(C)C(=O)Nc1ccc2c(c1)OCO2	16.3
COc1cc([N+](=O)[O-])ccc1NC(=O)CS(=O)(=O)Cc1ccccc1	18.6
CC(C)NC(=O)N(C)C[C@@H]1Oc2ccc(NS(=O)(=O)c3ccc(Cl)cc3)cc2C(=O)N([C@H](C)CO)C[C@H]1C	11.1
CC(OC(=O)c1cccc(Cl)c1)c1ccc[n+](C)c1 (centres undefined)	9.3
Cc1cc(C(=O)Nc2cccc3c2O[C@H](CN(C)CC2CCCCC2)[C@H](C)CN([C@@H](C)CO)C3=O)n(C)n1	40.6
COc1cc(C2c3c(cc(OC)c(O)c3OC)CC(CO)C2CO[C@@H]2O[C@H](CO)[C@@H](O)[C@H](O)[C@H]2O)cc(OC)c1O (some centres undefined)	-7.2
C[C@@H]1CCCCO[C@@H](CN(C)C(=O)CCCN(C)C)[C@@H](C)CN([C@H](C)CO)C(=O)c2cc(NS(=O)(=O)c3cn(C)cn3)ccc2O1	-10.0
COCc1cc(O)c(O)c(O)c1-c1c(COC)cc(O)c(O)c1O	96.6*
NC(=O)c1cc(-c2ccccc2)sc1NC(=O)Cn1cnc2scc(-c3ccccc3)c2c1=O	22.1
O=C(Nc1ccccc1SCCS(=O)(=O)c1ccc(Cl)cc1)c1ccccc1Cl	37.2
CC(=O)N/C(=C\c1cccs1)C(=O)O	-11.8
Cc1noc(C)c1S(=O)(=O)Nc1ccc2c(c1)C(=O)N([C@@H](C)CO)C[C@@H](C)[C@H](CN(C)Cc1ccc(-c3ccccc3)cc1)O2	20.3
Cc1noc(C)c1NC(=O)Nc1ccc2c(c1)CC(=O)N([C@H](C)CO)C[C@H](C)[C@H](CN(C)C(=O)Nc1ccccc1)O2	-9.8
Cc1noc(C)c1NC(=O)Nc1cccc2c1O[C@@H](CN(C)Cc1ccc3c(c1)OCO3)[C@H](C)CN([C@H](C)CO)C2=O	-5.1
C[C@@H]1CN([C@H](C)CO)C(=O)c2cc(NC(=O)Cc3cn(C)c4ccccc34)ccc2O[C@H]1CN(C)S(C)(=O)=O	15.5
CC(C(=O)N1CCN(C)CC1)N(c1ccc(Oc2ccccc2)cc1)S(C)(=O)=O (centres undefined)	31.3
Cc1ccc(S(=O)(=O)N(C)C[C@@H]2Oc3ccc(NS(=O)(=O)c4cn(C)cn4)cc3CC(=O)N([C@H](C)CO)C[C@H]2C)cc1	13.8
Cc1nnc(SCC(=O)Nc2cccc(I)c2)s1	4.9
CC(Oc1ccc(F)cc1)C(=O)NCCN1CCOCC1 (centres undefined)	-7.6
COc1ccc(CCC(=O)O)c(O[C@@H]2O[C@H](CO)[C@@H](O)[C@H](O)[C@H]2O)c1	16.3
CC(C)NC(=O)N(C)C[C@H]1Oc2ccc(NC(=O)Nc3ccc(C(F)(F)F)cc3)cc2CC(=O)N([C@@H](C)CO)C[C@@H]1C	7.1
Cc1cc(C)c(S(=O)(=O)NCC(=O)O)c(C)c1	-3.4
Cc1noc(C)c1S(=O)(=O)Nc1cccc2c1O[C@@H](CN(C)Cc1ccncc1)[C@@H](C)CN([C@@H](C)CO)C2=O	-9.7
C[C@H]1CN([C@@H](C)CO)C(=O)c2cc(NC(=O)CCC(F)(F)F)ccc2O[C@@H]1CN(C)Cc1ccc(Cl)c(Cl)c1	61.4
C[C@@H]1CN([C@@H](C)CO)C(=O)c2cc(NC(=O)CCN3CCOCC3)ccc2O[C@@H]1CN(C)CC1CC1	17.3
C[C@@H]1CN([C@H](C)CO)C(=O)Cc2cc(NC(=O)Nc3ccccc3)ccc2O[C@@H]1CN(C)Cc1ccc(-c2ccccc2)cc1	107.0*
COc1cc(C(=O)N=C2C(C)=CC(=O)C=C2C)cc(OC)c1OC	134.7*

Sorted by formula weight (lowest first): some entries from above.
SMILES	NOMO-1 viab
COCc1cc(O)c(O)c(O)c1-c1c(COC)cc(O)c(O)c1O	96.6*
Cc1sc(NC(=O)COc2ccc3c(C)cc(=O)oc3c2)c(C#N)c1C	11.3
COc1ccc(S(=O)(=O)N(C)C[C@H]2Oc3c(NS(C)(=O)=O)cccc3C(=O)N([C@H](C)CO)C[C@@H]2C)cc1	-13.2
C[C@@H]1CN([C@H](C)CO)C(=O)Cc2cc(NC(=O)Nc3ccccc3)ccc2O[C@@H]1CN(C)Cc1ccc(-c2ccccc2)cc1	107.0*
